From PubChem BioAssay
VACV Venus inh: qHTS for Stage-Specific Inhibitors of Vaccinia Orthopoxvirus: Venus Reporter Primary qHTS; Vaccinia virus Venus reporter expression, fluorescence; Potency, µM (top dose mostly 36.5 µM), for the others: top-dose activity change, negative = inhibition, hits mostly inhibitors; hit rate 0.46% among 330,000; active means well fitted inhibition curve with a large enough effect; inconclusive means small, poorly fitted or top-dose-only effect; inactive means no such curve, though single readings can be large or run the other way; tested in A549 cells; further: nearly all actives have a fitted effect of over 30% in size; inactives centre near -10
VACV mCherry inh: qHTS for Stage-Specific Inhibitors of Vaccinia Orthopoxvirus: mCherry Reporter Primary qHTS. Vaccinia virus mCherry reporter infection, fluorescence; about a quarter of the inactives have no number. hit rate 0.63% among 310,000. AID 720579, 2013. Potency, µM (series often up to 36.5 µM), for inactives: at the highest dose activity change, negative = inhibition, most hits filed as inhibitors; active = well fitted inhibition curve with a large enough effect; inconclusive = small, poorly fitted or top-dose-only effect; inactive = no such curve, though single readings can be large or run the other way; tested in A549 cells; further: nearly all actives have a fitted effect of over 35% in size; inactives centre near -10
* hit, by the source's call; i = inactive; u = inconclusive; x = not tested or not shown; & = joins results of further samples; [ ] = dose if it differs, or a comment. On the % scale 0 is the no-effect control and ±100 the full control effect; potency means the concentration at half of the fitted maximal effect.

Start of the listing, in advance:
SMILES	VACV Venus inh	VACV mCherry inh
COc1cccc(C(=O)N2CCC[C@@H]2C(=O)N2CCC[C@@H]2C(=O)NCc2ccccc2Cl)c1	0%	7%
O=C(NCc1ccc(Cl)cc1)c1cc2ccccn2n1	3%	8%

The list itself, from the start:
SMILES	VACV Venus inh	VACV mCherry inh
COc1cccc(C(=O)N2CCC[C@@H]2C(=O)N2CCC[C@@H]2C(=O)NCc2ccccc2Cl)c1	0%	7%
O=C(NCc1ccc(Cl)cc1)c1cc2ccccn2n1	3%	8%
Cc1occc1-c1nnc(SCC(=O)NCCc2ccccc2)n1Cc1ccccc1	-13%	-19%
CCN(C(=O)Cc1ccc(Br)cc1)C1CCCCC1	12%	x
CCC(CC)c1nnc(NC(=O)c2cc(C(=O)OC)cc([N+](=O)[O-])c2)s1	-11%	i
CCCNC(=S)N1CCC(C(=O)c2ccc(OC)cc2)CC1	-15%	-4%
Cc1ccc(Cc2c(-c3cccc(Cl)c3)nc3cc(C)c(Br)c(C)n23)cc1	-5%	0%
O=C1Cn2c(nc3ccccc32)-c2ccccc2N1	-11%	-12%
CCOc1ccc(N(CC(=O)NC(C(C)C)C(C)C)S(=O)(=O)c2ccc(OC)c(OC)c2)cc1	-18%	-14%
COc1ccccc1NC(=O)C(C)N(C)CC(=O)Nc1cccc2ccccc12 (stereo not drawn)	-9%	-18%
CC(=O)Nc1ccc(S(=O)(=O)N2CCC(c3nc4c(nnn4Cc4ccccc4Cl)c(=O)[nH]3)CC2)cc1	0%	i
CN1CCC(N(C)S(=O)(=O)c2ccc(NC(=O)COc3ccc(F)cc3)cc2)CC1	-14%	-7%
O=S(=O)(Cc1ccc(Cl)cc1)Nc1ccc2c(c1)OCO2	-7%	-22%
O=C(NC(=O)c1ccc(F)cc1)Nc1ccc(-c2cc(C(F)(F)F)nn2-c2ccccc2)cc1	-4%	-10%
Cc1onc(-c2ccccc2Cl)c1C(=O)NCc1cccs1	-16%	-21%[1.46 µM]
CC(C)NC(=O)C1CCN(C2CCN(Cc3cn[nH]c3-c3ccccc3)CC2)CC1	-8%	-1%
Nc1nc(-c2ccc(-c3ccccc3)cc2)cs1	u	u
CCOc1ccc(N2C(=O)C3Sc4[nH]c(=O)sc4C(c4ccc(OC)c(OC)c4)C3C2=O)cc1 (stereo not drawn)	0%	u
COC(=O)C1=C(C)N(C)C(=O)/C1=C\c1ccco1	-29%	-5%
COc1ccc2oc(C(=O)N(Cc3ccco3)Cc3cccs3)c(C)c2c1	-3%	i
CCOc1ccc(C(=O)Nc2ccc(C(F)(F)F)n(C)c2=O)cc1	-11%	-2%
O=[N+]([O-])c1ccc([C@H](O)[C@H](CO)N=Cc2ccccc2O)cc1	-7%	x
Cc1ccccc1Cn1c(=O)n(CCCC(=O)NCc2ccco2)c(=O)c2ccccc21	-26%	-16%
COc1cc(NC(=O)c2ccccc2)c(OC)cc1NC(=O)CSc1[nH]c(=O)cc(C)c1C#N	-14%	u
Cc1cccc(CSc2nc(-c3cccs3)ccc2C#N)c1	-4%	-12%

Ordered by SMILES length (highest first): part of the list above
SMILES	VACV Venus inh	VACV mCherry inh
CN1CCC(N(C)S(=O)(=O)c2ccc(NC(=O)COc3ccc(F)cc3)cc2)CC1	-14%	-7%
COc1ccccc1NC(=O)C(C)N(C)CC(=O)Nc1cccc2ccccc12 (stereo not drawn)	-9%	-18%
COc1ccc2oc(C(=O)N(Cc3ccco3)Cc3cccs3)c(C)c2c1	-3%	i
O=C(NCc1ccc(Cl)cc1)c1cc2ccccn2n1	3%	8%
Nc1nc(-c2ccc(-c3ccccc3)cc2)cs1	u	u

(cont.)
SMILES	VACV Venus inh	VACV mCherry inh
CC(C)CNC(=O)c1cc2nc3c(c(C(F)(F)F)n2n1)CCc1ccccc1-3	0%	x
CC(C)Cc1ccc(/C=C/C(=O)N2CCCCC2)cc1	-6%	i
CCc1ccc(OCCCC(=O)Nc2ccc(S(=O)(=O)Nc3cc(C)nc(C)n3)cc2)cc1	-6%	-6%
O=C(NC(=S)NC1CCCc2ccccc21)c1ccc(F)cc1 (stereo not drawn)	-4%	-14%
O=C1CCC/C1=c1\s/c(=C/c2cccnc2)c(=O)n1-c1ccccc1	-15%	i
CN(c1ccc(F)cc1)S(=O)(=O)c1ccc(Cl)c(C(=O)OCC(=O)NCc2ccco2)c1	-14%	-5%
CC(C)(C)C(=O)c1c(N)[nH]c(C(=O)c2ccccc2)c1-c1c(F)cccc1F	-13%	-22%
O=C(CSc1ncc(-c2ccccc2)[nH]1)Nc1cccc(Br)c1	-13%	-17%
CN(Cc1nc(-c2ccccc2)no1)C(=O)c1ccco1	3%	-16%
COC(=O)C1(C(=O)OC)CCCCN(S(=O)(=O)c2ccc(C)cc2)CCC1	-1%	28%
Cc1ccc(N(CC(=O)NCc2ccc(F)cc2)S(=O)(=O)c2c(C)nn(C)c2C)cc1	-7%	1%
S=c1oc(-c2ccncc2)nn1CCc1ccncc1	-5%	-6%
Oc1ccc(CN2CCCCC2)c2cccnc12	u	-34%
CCNC(=O)NC(C(=O)OC)C12CC3CC(CC(C3)C1)C2 (stereo not drawn)	-13%	i
CCOc1ccc(CCNC(=O)c2ccc3c(c2)N(Cc2ccc(C)cc2)CCS3)cc1	-16%	i
COc1ccc(C(=O)N(c2ccc(C)cc2)S(=O)(=O)c2ccc(C)cc2)cc1	-29%	u
C/C(Cl)=C\CNC(C)c1ccccc1 (stereo not drawn)	-9%	-23%
COc1ccc(-c2nc3ccc(C)cn3c2Cc2ccsc2)cc1OC	-10%	i
Cc1cc(C(=O)OCC(=O)NC(C)C)c2ccccc2n1	20%	1%
COc1ccc(S(=O)(=O)N(CCc2ccccc2)CC(=O)Nc2cc(C)cc(C)c2)cc1OC	-21%	u
Cc1ccc(C)c(NC(=O)N2CCN(c3nnc(C)c4c(C)n(-c5ccccc5)nc34)CC2)c1	-3%	-10%
CN(C(=O)CSCC(=O)Nc1ccc(Cl)cc1)C1CCCCC1	5%	-15%
CC(=O)N(C)[C@H]1C[C@@H](c2ccccc2)N(C(C)=O)C[C@H]1CO	-4%	14%
COc1ccc(Br)cc1CN1C(=O)c2ccccc2C1C(=O)NC1CCCCCC1 (stereo not drawn)	-14%	-16%
O=C(CN1CCSc2ccccc21)N1CCN(c2ccc(F)cc2)CC1	-6%	-2%
Carrying on:
SMILES	VACV Venus inh	VACV mCherry inh
Cc1ccc(S(=O)(=O)Oc2ccc(/C=N/NC(=O)c3ccncc3)cc2)cc1	-9%	-7%
Cc1ccc(/C=C/c2nc3ccccc3c(=O)n2CCc2ccccc2)cc1	-1%	-15%
CCN(CC)CCCNC(=O)CN1N=C(c2ccc(OC)cc2)CCC1=O	-8%&-1%	-8%&-9%
COc1cccc(NC(=O)NCCCN2CCN(c3ccc(F)cc3)CC2)c1	-26%	x
CCOC(=O)c1cc(-c2sc(NC(=O)c3ccccc3)nc2C)n(CCO)n1	-22%	i
O=C(CC1N=C2c3ccccc3N=C(SCC(=O)Nc3cccc(C(F)(F)F)c3)N2C1=O)NCc1cccs1 (stereo not drawn)	1%	7%
O=C(c1cc2cc3ccc(Cl)cc3nc2o1)N1CCCCCC1	-9%	-16%
O=C(CSc1nnnn1-c1ccccc1)N1CCN(C(=O)c2ccco2)CC1	-13%	x
COc1ccc(/C(C)=N/OCC(=O)N2CC3(C)CC2CC(C)(C)C3)cc1 (stereo not drawn)	-13%	-25%
Cc1ccc(-c2[nH]c(=O)n3ccncc23)s1	-6%	-13%
CCC(c1nnnn1-c1ccc2c(c1)OCCO2)N1CCN(C(=O)c2ccco2)CC1 (stereo not drawn)	0%	-8%
CCCCOC(=O)c1ccc(Nc2ncnc3[nH]ncc23)cc1	-7%	-8%
CCOc1ccccc1NC(=O)c1ccc(NC(=O)C2CCCO2)cc1 (stereo not drawn)	6%	-4%
Cc1ccc(NC(=O)c2nc(S(=O)(=O)Cc3ccccc3C)ncc2Cl)cc1C	-20%	-2%
CCOC(=O)C1CCCN(C(=O)Cn2ncc3c4ccccc4n(Cc4ccccc4)c3c2=O)C1 (stereo not drawn)	-3%	-2%
CC(C)(C)NC(=S)N1Cc2ccccc2-n2nncc2C1	-10%	-9%
O=C(c1ccccc1)c1c(O)nc(-c2ccccc2)n(-c2ccccc2)c1=O	-5%	1%
CC(C)C[C@@H](NC(=O)C1CCC(CNC(=O)[C@@H]2CCCN2C(=O)OC(C)(C)C)CC1)C(=O)O (stereo partly drawn)	-15%	-4%
CN(CC(=O)Nc1cccc(F)c1)C(=O)c1cccc(S(=O)(=O)N2CCN(c3ccccc3)CC2)c1	u	u
CC1=CC(c2ccccc2)n2nc(NC(=O)CCC(=O)O)nc2N1 (stereo not drawn)	-11%	-12%
Cc1ccccc1CN1C(=O)C(O)(CC(=O)c2ccncc2)c2ccccc21 (stereo not drawn)	-17%	i
COc1ccc(CCNc2oc(COc3ccc(F)cc3)nc2C#N)cc1	-15%	-26%
Nc1c(-c2ccc(F)cc2)nc2ncccn12	-5%	u
CCOC(=O)c1[nH]c2ccc(OCC)cc2c1NC(=O)CN1CCC2(CC1)OCCO2	-19%	x
Cc1ccc(COc2ccsc2C(=O)O)cc1	8%	-3%
The list goes on:
SMILES	VACV Venus inh	VACV mCherry inh
C=CCc1cccc2ccc(=O)oc12	-6%	0%
Cc1ccc(NS(=O)(=O)c2ccc(C(=O)NCc3ccc(S(N)(=O)=O)cc3)cc2)cc1	-6%	-4%
O=c1cc(O)c2c(=O)[nH]c(=O)n(-c3ccccc3)c2[nH]1	-3%	x
CN1CCN(NC(=O)c2ccc(Br)s2)CC1	2%	-12%
O=[N+]([O-])c1ccc(NN=Cc2cccc(O)c2)nc1	-9%	u
O=C(Nc1nc2n(n1)C(c1ccccc1)CC(c1ccc(Cl)cc1)N2)c1ccco1 (stereo not drawn)	u	x
CCc1ccc(OCC(=O)N2CCN(CCc3ccncc3)CC2)cc1	-11%	-11%
COc1ccc(C(=O)Nc2ccc(OCC(F)(F)C(F)F)c(C(F)(F)F)c2)cc1OC	u	u
CCOC(=O)C1=NN(C(=O)Cc2ccccc2)C(O)(c2ccc(Cl)cc2)C1 (stereo not drawn)	-14%	-23%
CCC(=O)Nc1ccc(Cl)c(NC(=O)c2c(OC)cccc2OC)c1	-12%	i
CC(C)N1CC2(CC(c3ccccc3C(F)(F)F)=NO2)CN1C(=O)c1ccco1 (stereo not drawn)	-24%	7%
O=C(CN(Cc1ccco1)C(=O)CCC(=O)Nc1nccs1)NCc1ccccc1	-16%	x
COc1cccc(/C=N/NC(=O)CNC(=O)c2ccc3c(c2)OCCO3)c1O	u	u
CC(=O)N1CCOc2ccc(S(=O)(=O)NC(C)c3ccccc3)cc21 (stereo not drawn)	-13%[7.34 µM]	i[7.34 µM]
COc1ccc(OCC(=O)N2CCN(C(=O)c3ccc([N+](=O)[O-])cc3)CC2)cc1	5%	i
C=CC(=O)NCC1OCCc2ccccc21 (stereo not drawn)	-17%	-14%
CC1CCN(C(=O)COC(=O)c2cc(Cl)c3c(c2)OCO3)CC1	-3%	-10%
CCCCCC(=O)Nc1nc(C)c(-c2csc(Nc3ccccc3OCC)n2)s1	-28%	u
COC(=O)c1c(SC)nc2ccccc2c1OCc1ccc(Cl)cc1	-7%	-22%
CN1C(=O)/C(=C/c2ccccc2OCc2ccccc2)NC1=S	-11%	i
Cc1cccc(CC(=O)NCCn2c(C)cc3ccccc32)c1	-8%	-27%
COCCCNC(=O)CCCn1c(=O)c2ccccc2n(CC(=O)Nc2c(C)cc(C)cc2C)c1=O	-5%	-25%
Cc1ccccc1Cn1c2ccccc2c2cnn(CC(=O)N3CCC(C)CC3)c(=O)c21	-13%	-19%
Cc1ccc(C(=O)OCC(=O)Nc2ccccc2Sc2ccccc2)cc1C	-3%	-3%
Nc1nc(SCC(=O)NNc2c(Cl)cc(Cl)cc2Cl)n[nH]1	9%	-7%

Profiles from above.
Cc1cccc(CC(=O)NCCn2c(C)cc3ccccc32)c1 in the list: VACV Venus inh = -8%; VACV mCherry inh = -27%
Cc1ccccc1Cn1c2ccccc2c2cnn(CC(=O)N3CCC(C)CC3)c(=O)c21 in the list: VACV Venus inh = -13%; VACV mCherry inh = -19%

Continued.
SMILES	VACV Venus inh	VACV mCherry inh
COc1ccc([N+](=O)[O-])cc1NC(=O)C(C)OC(=O)c1cccnc1Cl (stereo not drawn)	-4%	-2%
CCOC(=O)c1sc(NC(=O)C(C)C)c(C#N)c1C	-20%	i
O=C(NCc1ccccc1)c1ccc(CS(=O)Cc2cccc(Cl)c2)o1 (stereo not drawn)	-7%	i
CCOc1ccc(CCNC(=O)COC(=O)Cn2nc(C)c([N+](=O)[O-])c2C)cc1OCC	-20%	i
O=C(N/N=C/c1cc([N+](=O)[O-])ccc1O)c1cc(-c2ccccc2)nc2ccccc12	-10%	u
O=C1CC(=O)N(CCc2ccc(F)cc2)C(=O)N1	-5%	x
